Bioassay records (PubChem BioAssay)
Marburg entry inh: blocks Marburg virus binding to or entry into cells | 300,000 compounds, 1.8% hits | Marburg virus pseudotyped entry inhibition, cell reporter; control for the full effect not named in the record; about a third of the inactives were read at about 46 µM | Potency, µM (highest dose often 37.8 µM), inactives show at the top dose activity change, negative = inhibition, usual class: inhibitors | AID 540276; active = well fitted inhibition curve with a large enough effect; inconclusive = small, poorly fitted or top-dose-only effect, or effect the other way; inactive = flat fitted curve, though single readings scatter; tested in HEK293 cells; about a fifth of its hits are not listed in these tables; note: % is set by controls: 0 for no effect and ±100 for the full control effect; luciferase read-out
Cruzain inh noDet: blocks cruzain activity in detergent-free assay | P25779 | purified cruzain, Z-FR-AMC fluorescence, no detergent | Potency, µM, for inactives: max response, negative = inhibition, hits mostly inhibitors | 200,000 compounds, 2.3% hits | AID 1476;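 note: plate controls were enzyme without inhibitor for no effect and buffer without enzyme for full effect; nearly all actives have a fitted effect of over 40% in size; top concentration of the series not given in the record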
Target sequence (P25779 123-467 limits assumed): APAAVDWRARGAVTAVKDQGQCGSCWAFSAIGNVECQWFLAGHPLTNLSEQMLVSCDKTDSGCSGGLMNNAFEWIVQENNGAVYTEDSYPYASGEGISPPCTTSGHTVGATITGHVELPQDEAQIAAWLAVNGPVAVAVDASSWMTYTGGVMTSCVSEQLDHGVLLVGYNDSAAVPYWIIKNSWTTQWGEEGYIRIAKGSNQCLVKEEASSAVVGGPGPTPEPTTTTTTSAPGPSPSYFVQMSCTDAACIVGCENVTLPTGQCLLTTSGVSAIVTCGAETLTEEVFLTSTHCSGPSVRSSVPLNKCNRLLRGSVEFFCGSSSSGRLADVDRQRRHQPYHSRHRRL
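Purified cruzain at 1.5 nM, pre-incubated 15 min with compound at room temperature in 100 mM sodium acetate pH 5.5, 5 mM DTT, 0.00005% Triton X-100. Reaction started with 2 uM Z-FR-AMC; AMC fluorescence increase over 60 s gives rate.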
StopGo reporter: lowers the luciferase signal of an FMDV 2A StopGo reporter. human cells with a luciferase reporter of 2A StopGo recoding; control for the full effect not named in the record. Potency, µM (titrated, usually from 57.9 µM), without a hit: at the top dose signal change, negative = less light. 410,000 compounds, 1.2% hits. AID 1159524; active = well fitted falling curve with a large enough effect; inconclusive = small, poorly fitted or top-dose-only effect; inactive = no such curve, though single readings can be large or run the other way; tested in HEK293T cells; note: % is set by controls: 0 for no effect and ±100 for the full control effect; nearly all actives have a fitted effect of over 45% in size; luciferase light after 4 h
SARS PLP yeast: blocks SARS-CoV papain-like protease in a yeast assay | S. cerevisiae expressing SARS-CoV PLpro, growth rescue; control for the full effect not named in the record | Potency, µM (top dose mostly 32.9 µM), without a hit: at the highest dose activity, positive = growth rescue | 330,000 compounds, 0.19% hits | AID 485353; active means well fitted rising curve with a large enough effect; inconclusive means small, poorly fitted or top-dose-only effect; inactive means no such curve, though single readings can be large or run the other way; note: 0% is about no effect; nearly all actives have a fitted effect of over 55% in size; growth read by luminescence after 48 h
LASV entry inh: Lassa virus entry inhibition; 300,000 compounds, 1.2% hits; AID 540256; Lassa virus pseudotype entry inhibition, cell reporter; control for the full effect not named in the record; Potency, µM (highest dose often 37.9 µM), for inactives: at the top dose activity change, negative = inhibition, most hits filed as inhibitors; active means well fitted inhibition curve with a large enough effect; inconclusive means small, poorly fitted or top-dose-only effect, or effect the other way; inactive means flat fitted curve, though single readings scatter; tested in HEK293 cells; note: % is set by controls: 0 for no effect and ±100 for the full control effect; nearly all actives have a fitted effect of over 50% in size; luciferase read-out
NS1 function inh: blocks influenza NS1 protein function; S. cerevisiae slowed by influenza A NS1, growth recovery by OD600; Potency, µM (highest dose often 46.1 µM), for inactives: at the top dose activity, positive = more growth; 270,000 compounds, 0.4% hits; active means well fitted rising curve with a large enough effect; inconclusive means small, poorly fitted or top-dose-only effect; inactive means no such curve, though single readings can be large or run the other way; note: nearly all actives have a fitted effect of over 50% in size
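OD600 was taken as the measure of yeast growth restored by compound in an NS1-expressing S. cerevisiae strain. Cells had been washed out of glucose medium and diluted 1:100 into galactose -URA medium, pH 6.0.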
RE007 growth inh: less growth of the S. pombe RE007 Vpr strain; S. pombe RE007 Vpr strain, BacTiter-Glo ATP luminescence, 24 h; control for the full effect not named in the record; Potency, µM (highest dose often 92.2 µM), for inactives: at the highest dose activity change, negative = less growth; 360,000 compounds, 0.21% hits; AID 651644; active = well fitted falling curve with a large enough effect; inconclusive = small, poorly fitted or top-dose-only effect; inactive = no such curve, though single readings can be large or run the other way;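 note: % is set by controls: 0 for no effect and ±100 for the full control effect; nearly all actives have a fitted effect of over 50% in size; the assay follows cell death caused by Vpr and the record does not say whether a fall means rescue or toxicity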
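Fission yeast strain RE007, carrying one chromosomally integrated HIV-1 vpr copy, was seeded at OD 0.01 in PMG+AL medium with 23 nL pinned compound. After 24 h at 30 °C and 99% humidity, viability was read by BacTiter-Glo luminescence.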
Cruzain Triton: cruzain (T. cruzi) inhibition with detergent; P25779; purified cruzain, Z-FR-AMC fluorescence, 0.01% Triton; Potency, µM, for inactives: max response, negative = inhibition, hits mostly inhibitors; 200,000 compounds, 0.43% hits;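 note: plate controls were neutral wells for no effect and buffer without enzyme for full effect; nearly all actives have a fitted effect of over 40% in size; top concentration of the series not given in the record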
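Cysteine protease activity tested under reducing, mildly acidic conditions (100 mM sodium acetate pH 5.5, 5 mM DTT) plus 0.01% Triton X-100. Cruzain 1.5 nM; substrate Z-FR-AMC 2 uM; 15 min compound preincubation at room temperature.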
An asterisk follows results filed as active; ? = inconclusive; . = not tested or not shown; & = joins results of further samples; [ ] = another dose, or the depositor's remark. Unless noted, calls come from the whole dose curve; as a rule, active = well fitted curve in the direction sought with a large enough effect; inconclusive = small, poorly fitted or top-dose-only effect, or another doubt; inactive = no such curve, though single readings can be large; an effect the other way counts as inactive or inconclusive. Potency is the fitted concentration of half-maximal effect.

SMILES	Marburg entry inh	Cruzain inh noDet	StopGo reporter	SARS PLP yeast	LASV entry inh	NS1 function inh	RE007 growth inh	Cruzain Triton
COc1cccc(OCC(=O)NC2CC(=O)N(c3ccc4c(c3)OCCO4)C2)c1 (stereo not given)	.	-7%	4%	.	-15%[46.1 µM]	.	.	-0.6%
NNC(=O)c1ccc(COCC(F)(F)F)cc1	?	.	1%	-1%	-7%	5%	2%	.
O=C(ONC1=NCCCCC1)c1ccc([N+](=O)[O-])cc1	?	.	-9%	-26%	?	-31%	-15%	.
CCOC(=O)c1oc2ccccc2c1COC(=O)CNC(=O)c1cc(OC)c(OC)c(OC)c1	?	.	-26%	.	-4%	.	5%	.
CCOc1ccc(NC(=O)CN2C(=O)c3ccccc3C2=O)cc1	.	.	16%	2%	.	7%	28%	.
CCN(CC)S(=O)(=O)c1ccc(N=Nc2cc(C)cc(Br)c2O)cc1	-24%	.	-2%	.	-2%	.	6%	.
O=C(Cn1ncc2c1-c1ccccc1OC2)N1CCc2ccccc21	1%	6%	-26%	-19%	-6%	-38%	16%	-0.5%
O=C(Nc1ccc2c(c1)OCO2)C1CCN(C(=O)c2ccc(Cl)cc2)CC1	-14%[46.1 µM]	.	-11%	-1%	-28%[46.1 µM]	-8%	-7%	.
CCOC(=O)c1cc(CC)sc1NC(=O)COc1ccc2c(C)cc(=O)oc2c1	3%	?	-14%	-24%	3%	11%	-3%	-3.9%
CCC(=O)N1CCc2cc(Br)cc(S(=O)(=O)CCC(=O)NCc3ccccc3OC)c21	13%[46.1 µM]	5%	?	.	16%[46.1 µM]	.	.	1.5%
CCSc1nnc(NC(=O)C2CCN(S(=O)(=O)c3c(C)c(C)cc(C)c3C)CC2)s1	-24%	-25%	.	-2%	-1%	12%	.	-5.9%
Cc1c(C(=O)NCC2CCCO2)oc2ccc(S(=O)(=O)N3CC(C)CC(C)C3)cc12 (stereo not given)	-8%	?	?	-5%	.	-38%	28%	3.4%
CCc1nn(CC(=O)N2CCC3(CC2)OCCO3)c(=O)c2cc3ccccc3n12	.	.	-5%	-2%	.	0%	-5%	.
Cc1cc(C)n2nc(C(=O)OCC(=O)Nc3ccc(C)c(S(=O)(=O)N4CCOCC4)c3)nc2n1	?	.	42%[activator]	-1%	1%	.	-2%	.
O=c1[nH]c(-c2ccccc2)cnc1-c1ccccc1	10%	.	-15%	.	?	.	-2%	.
COc1ccc(CNC(=O)C[C@H]2C(=O)N(CCc3ccccc3)C[C@@H]2Cc2ccccc2)cc1	.	.	-28%	-1%	.	-19%	-10%	.
CCOC(=O)C1=C(O)C(=O)N(C2CCCCC2)C1	.	.	-13%	1%	18%	1%	11%	.
CC(Sc1nc(-c2ccccc2)cc(C(F)(F)F)n1)C(=O)N1CCC(C(N)=O)CC1 (stereo not given)	?	167%	.	13%	-3%	-6%	-2%	-4.8%
O=C(CNC(=O)c1cccc(Br)c1)N/N=C/c1cccs1	.	.	5%	2%	.	-2%	1%	.
N#CCCn1nnc(-c2ccccc2F)n1	26%	-10%	-20%	15%	1%	3%	-5%	4.5%
C=CCOc1ccc(/C(O)=C2\C(=O)C(=O)N(CCCOC)C2c2ccc(O)c(OC)c2)cc1 (stereo not given)	1%	-2%	-13%	-3%	-1%	3%	?	1.7%
COc1cn(CC(=O)Nc2cccc(C)c2)c(CN2CCCCC2)cc1=O	.	12%	-13%	.	17%[46.1 µM]	.	.	3.8%
O=C(Nc1ccc(Cl)c([N+](=O)[O-])c1)C(NCCCO)c1ccccc1 (stereo not given)	?	-1%	43%[activator]	5%	0%	3%	3%	-2.3%
CCOC(=O)c1c(C)[nH]c(NC(=O)Nc2ccc(NC(C)=O)cc2)c1C	.	.	-18%	-1%	.	3%	15%	.
COc1ccc(-c2cn3nc(N4CCC(C(=O)Nc5cccc(Cl)c5)CC4)sc3n2)cc1	.	?	20%	.	-8%[46.1 µM]	.	.	-0.6%

Carrying on:
SMILES	Marburg entry inh	Cruzain inh noDet	StopGo reporter	SARS PLP yeast	LASV entry inh	NS1 function inh	RE007 growth inh	Cruzain Triton
CC(=O)Nc1ccc(S(=O)(=O)Nc2nc3ccccc3nc2N2CCc3ccccc3C2)cc1	0%	8%	30%[activator]	6%	?	?	-3%	-6.9%
CCN(CC)S(=O)(=O)c1ccc2c(c1)c(C(=O)O)cn2C	8%&8%	1%	-3%	6%	6%	2%	4%	0.6%
O=C(CCl)c1ccc2c(c1)CCN2C(=O)C1CCCCC1	?	.	20µM*	-7%	-4%[46.1 µM]	.	11µM*	.
Cc1onc(-c2ccccc2)c1C(=O)N1CCN(Cc2ccccc2)CC1	7%	.	-14%	-9%	-8%	-1%	-1%	.
Cc1ccc(S(=O)(=O)N/N=C/c2cccs2)cc1	2%	.	113%[activator]	-4%	5%	.	14%	.
CCCCC(=O)NNC(=O)CC(=O)Nc1ccccc1C(=O)O	.	.	-23%	-2%	.	0%	14%	.
Cc1ccc(OCC(=O)OC2CCS(=O)(=O)C2)cc1 (stereo not given)	-3%	-11%	19%	-12%	8%	-6%	-4%	4.1%
Cc1ccc(C(=O)C(C)OC(=O)CNC(=O)c2ccc(Br)o2)cc1 (stereo not given)	3%[46.1 µM]	.	-11%	.	0%	.	-16%	.
CCOC(=O)CN1C(C(=O)c2ccccc2)=C(OC(=O)c2ccccc2)c2ccccc2S1(=O)=O	0%[46.1 µM]	-9%	-24%	.	-1%[46.1 µM]	.	.	-5.1%
S=c1[nH]nc(-c2cc(-c3ccccc3)n[nH]2)n1/N=C/C(Br)=C/c1ccccc1	?	.	?	-6%	?	-9%	-12%	.
COc1ccc(NC(=O)CSc2nc(N)cc(=O)[nH]2)cc1S(=O)(=O)N1CCCCC1	10%	.	3%	0%	13%	.	3%	.
CC(=O)Nc1c(-c2ccccc2Cl)c(=O)c2ccccc2n1C	.	.	-14%	-2%	.	2%	8%	.
CCOc1ccc(N2C(=O)CC(NCCc3c[nH]c4ccccc34)C2=O)cc1 (stereo not given)	.	.	-14%	-5%	.	-2%	?	.
CCCCNC(=O)c1cc2c(-c3ccc(Cl)cc3)nn(C)c2s1	.	-4%	-18%	-8%	.	-10%	2%	1.4%
Cc1ccc(NC(=O)c2ccc(-n3cncn3)c([N+](=O)[O-])c2)cc1	22%	4%	?	-2%	-15%	4%	-6%[3.69 µM]	0.1%
Cc1ccc(CNC(=O)N2CCN(C)CC2)cc1	?	2%	3%	2%	-2%	7%	-1%	3.2%
Cc1ccc2occ(/C=N/NC(=O)c3ccncc3)c(=O)c2c1	.	.	1%	7%	.	-19%	-5%	.
COc1cc(OC)c(C2N(c3cc(C)on3)C(=O)C3CCCN32)cc1OC (stereo not given)	?	-4%	-1%	-4%	-6%	2%	-15%	-1.0%
O=C(NO)c1ccc(OC(F)F)cc1	-6%	-2%	-6%	8%	0%	?	-5%	-5.0%
COc1ccc(NC(=O)C2CCN(S(=O)(=O)c3c(C)noc3/C=C/c3cccs3)CC2)cc1	14%[46.1 µM]	-10%	-29%	.	16%[46.1 µM]	.	.	-2.0%
CC(=O)NCC1CCCN(Cc2cn(-c3ccccc3)nc2-c2ccc3c(c2)OCO3)C1 (stereo not given)	-3%	.	8%	1%	2%	-4%	3%	.
Cc1c(-c2csc(N)n2)cnn1C	12%[46.1 µM]	.	39%[activator]	6%	-1%	.	0%	.
O=C(CSc1nnc(COc2ccc(Cl)cc2)o1)N1CCOCC1	.	.	-7%	1%	.	-7%	8%	.
O=C1CCCc2[nH]c3cccc(/C(=C/c4ccccc4)c4ccccc4)c3c21	.	.	-9%	2%	.	14%	-7%	.
O=C(CN1CCCC1)Nc1ccc([N+](=O)[O-])cc1	-17%[46.1 µM]	.	-3%	-2%	14%[46.1 µM]	9%	-2%	.

Following part.
SMILES	Marburg entry inh	Cruzain inh noDet	StopGo reporter	SARS PLP yeast	LASV entry inh	NS1 function inh	RE007 growth inh	Cruzain Triton
CC(C)Oc1ccc(C(=O)NCc2cccnc2)cc1	5%	-1%	19%	-4%	4%	?	-12%	-2.1%
CCN(C(=O)COC(=O)c1cccnc1Nc1cccc(C(F)(F)F)c1)C1CCS(=O)(=O)C1 (stereo not given)	-2%	?	-25%	1%	-13%	-5%	-19%	-2.5%
Fc1cccc(Nc2c3c(nc4ccccc24)CCC3)c1	-2%[46.1 µM]	.	-14%	-1%	?	-9%	-9%	.
O=C(NC(=S)N1CCCCC1)C12CC3CC(CC(C3)C1)C2	-4%	8%	-9%	?	-22%	5%	-9%	7.8%
Cn1c(=O)c2nc(SCC(=O)Nc3cc(Cl)ccc3Cl)n(C)c2n(C)c1=O	.	-5%	-13%	.	-1%[46.1 µM]	.	.	1.3%
CCOc1ncccc1C(=O)OCC(=O)Nc1ccc(C)c(S(=O)(=O)N(C)C)c1	1%[46.1 µM]	.	-16%	-5%	-15%[46.1 µM]	-3%	10%	.
CCOc1ccc(OCC)c(NC(=O)Cn2ncc3c4ccccc4n(Cc4ccccc4)c3c2=O)c1	-26%[46.1 µM]	9%	-4%	.	-2%[46.1 µM]	.	.	-1.1%
FC(F)(F)c1cnc(Oc2cccc3ccccc23)c(Cl)c1	-20%	9%	18%	-6%	11%	-2%	11%	-4.9%
CCCC(O)c1nc2ccccc2n1CCCOc1ccc(Cl)cc1 (stereo not given)	-6%[46.1 µM]	-2%	20µM*	.	17%[46.1 µM]	.	.	-3.0%
CCOC(=O)c1sc(NC(=O)c2cc(-c3ccccc3)nc3ccccc23)c(C#N)c1C	?	?	?	0%	-27%	?	-7%	1.1%
COC(=O)c1c(C)oc2ccc(N(C(=O)c3ccncc3)S(=O)(=O)c3ccc(C)cc3)cc12	3.2µM*	?	-18%	-12%	-18%	9%	3%	-2.9%
Cc1ccc(N2CCN(C(=O)c3c(C)oc4nc(C)nc(N5CCCC5)c34)CC2)c(C)c1	.	7%	-24%	.	-7%[46.1 µM]	.	.	3.8%
COc1cc(C2/C(=C(\O)c3ccc4c(c3)CC(C)O4)C(=O)C(=O)N2CCN2CCOCC2)cc(OC)c1OC (stereo not given)	8%	.	-14%	7%	15%	17%	-7%	.
